Screens as filed in PubChem BioAssay.
Mtb bLac sens = beta-lactam sensitization of Mtb H37Rv, H37Rv; M. tuberculosis H37Rv growth with meropenem, percent inhibition; hits of this screen are not shown here; inhibition, % at 25 µM; 330,000 compounds, 0.27% hits; AID 434955, 2010;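 active means about 74% or more and at least 40 points above the plate without the antibiotic, then above 30% in a dose series; inconclusive means first-round hits that could not be retested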;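 further: growth measured after seven days incubation then overnight dye step; 0% = bacteria only wells and 100% = bacteria with antibiotic; twin plates without the antibiotic show which effects depend on it; some results filed as inactive read as strong as hits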
RecA intein inh = Mtb RecA intein splicing inhibitors, primary screen, biochemical, fluorescence, HTS; Protein RecA (Mycobacterium tuberculosis (strain ATCC 25618 / H37Rv)), P9WHJ3; inhibition, %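 (about 9 µM by stock and volumes)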; cell-free RecA intein splicing; AID 2221, 2009; 290,000 compounds, 0.75% hits; in the data active means inhibition above about 30%; inconclusive means no clear call, values can overlap the other calls;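 further: 0% = vehicle wells and 100% = reference inhibitor control wells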
Target sequence (P9WHJ3 whole entry, looked up): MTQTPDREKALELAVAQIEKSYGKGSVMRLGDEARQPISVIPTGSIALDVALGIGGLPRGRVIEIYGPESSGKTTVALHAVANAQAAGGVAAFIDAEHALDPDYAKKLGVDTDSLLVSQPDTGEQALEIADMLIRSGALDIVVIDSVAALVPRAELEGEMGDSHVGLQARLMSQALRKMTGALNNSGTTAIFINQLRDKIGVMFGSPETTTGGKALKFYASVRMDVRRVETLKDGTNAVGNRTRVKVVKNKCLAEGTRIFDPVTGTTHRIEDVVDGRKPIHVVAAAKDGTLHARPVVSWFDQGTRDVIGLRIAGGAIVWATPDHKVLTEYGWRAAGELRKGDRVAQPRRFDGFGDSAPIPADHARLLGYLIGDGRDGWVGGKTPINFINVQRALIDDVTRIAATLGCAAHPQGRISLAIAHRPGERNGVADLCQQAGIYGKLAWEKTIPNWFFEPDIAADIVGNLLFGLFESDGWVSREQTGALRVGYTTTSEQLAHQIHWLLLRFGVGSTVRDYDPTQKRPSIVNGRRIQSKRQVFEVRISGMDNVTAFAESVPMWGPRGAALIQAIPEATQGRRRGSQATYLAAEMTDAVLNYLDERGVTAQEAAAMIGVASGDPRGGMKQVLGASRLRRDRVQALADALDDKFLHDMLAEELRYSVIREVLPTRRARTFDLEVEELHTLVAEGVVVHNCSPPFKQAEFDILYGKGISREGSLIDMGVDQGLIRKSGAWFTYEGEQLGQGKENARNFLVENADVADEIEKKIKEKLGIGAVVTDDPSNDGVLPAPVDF
YopH inh = YopH tyrosine phosphatase inhibitors, primary screen, biochemical, fluorescence Ex485/Em525; AID 898, 2007; inhibition, %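 (about 10 µM by stock and volumes)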; 140,000 compounds, 0.16% hits; YopH tyrosine phosphatase [Yersinia enterocolitica];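 active means inhibition of 50% or more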;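 further: controls were vehicle for no effect and minimum signal wells for full effect; inactives centre near -20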
Mtb H37Rv = M. tuberculosis H37Rv growth inhibitors, H37Rv strain (AID 1626); 220,000 compounds, 0.95% hits; M. tuberculosis H37Rv growth inhibition; higher % means a stronger effect; inhibition, % at 10 µM; hits with a dose series show IC50 in µM;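 active means confirmed in a dose series; inconclusive means inhibition above 80% but not taken into the dose series; inactive means below 80% or under 30% at every dose of the series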;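 further: bacteria incubated seven days before Alamar blue readout; 0% = bacteria only wells and 100% = bacteria with antibiotic wells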
Arbovirus anti = antivirals against arbovirus infection, primary screen, cell-based, full library, 10K replicate subset | AID 1251, 2008 | inhibition, % at 10 µM | arbovirus infection cell-based antiviral screen | 200,000 compounds, 0.37% hits;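 active means inhibition from about 30%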;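 further: bluetongue infection of BSR cells; cell survival read as ATP light after 72 h; 0% = infected wells without compound and 100% = uninfected wells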
Arbovirus anti repeat = recorded beside Arbovirus anti, whose call it bears; inhibition, %; measured here: 10K subset replicate screen; many hits read low in the repeat;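 first of two repeat runs on a subset; 0% = infected and 100% = uninfected wells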
Numbers without * were called inactive; ? = inconclusive; . = no result given. This is a subset; count on the stated rates, not on these rows.

SMILES	Mtb bLac sens	RecA intein inh	YopH inh	Mtb H37Rv	Arbovirus anti	others
CN1CCN(C(c2ccc(Br)cc2)c2cc(Cl)c3cccnc3c2O)CC1 (centres undefined)	14	74*	.	.	.
Cc1cc2oc(=O)cc(CSc3nc(N)cc(N)n3)c2cc1C	-7	2.0	-9	15%	2
COc1ccc(S(=O)(=O)N2CCCCCC2)cc1C(=O)NC1(C)CCS(=O)(=O)C1 (centres undefined)	-12	3.1	.	.	.
Cc1onc(COc2ccccc2O)c1Br	-1	0.8	-29	-10%	12
CCOC(=O)c1ccc(NC(=O)CN2C(=O)NC3(CCCCCC3)C2=O)cc1	49	-6.5	.	-5%	-22
CCOC(=O)c1cnn(CCOC(=O)c2ccccc2F)c1NC(=O)c1ccccc1F	4	1.6	-32	-4%	-3
OC(CN1CCN(c2cccc(Cl)c2)CC1)c1ccc(F)cc1 (centres undefined)	11	1.8	.	.	.
CCCCOc1ccc(C(=O)NCC2(c3ccc(OC)cc3)CCOCC2)cc1	-6	1.6	-19	4%	2
O=C(CCc1ccccc1)Nc1ccc(N2CCOCC2)c(Cl)c1	4	2.7	-32	4%	-4
Cc1ccc(NC(=O)c2ccc(CSc3ccccn3)cc2)c(O)c1	73	13	.	50%	.
CCOc1ccc(-c2nnc(-c3ccco3)o2)cc1OCC	-3	0.3	-38	4%	12
CC(C)N(CCNC(=O)c1cn(C)c2ccc(S(=O)(=O)N(C)C)cc2c1=O)Cc1ccccc1	1	-1.6	.	-6%	-4
Cn1c(OCc2cccnc2)nc2c1c(=O)n(Cc1ccc(Cl)cc1)c(=O)n2C	94	2.4	-26	0%	.
COc1cc(C(CC(=O)Nc2ccc(C)cn2)N2Cc3ccccc3C2=O)cc(OC)c1OC (centres undefined)	0	1.6	.	.	.
Cc1ccc(S(=O)(=O)NCc2ccc3[nH]c(C)cc3c2)cc1	5	3.0	.	13%	-14
COc1ccc(C(C(=O)NC(C)(C)C)N(CCO)C(=O)CCC(=O)Nc2cc(C)on2)cc1 (centres undefined)	1	0.0	.	.	.
Fc1ccc(CN2CCN(C(=S)NCCc3ccccc3)CC2)c(Cl)c1	0	0.5	.	-3%	5
CCCCN(c1ccccc1)S(=O)(=O)c1cccc2cccnc12	0	6.0	.	-3%	.
COc1ccccc1OCC(O)CNCc1ccc2c(c1)OCO2 (centres undefined)	2	-1.3	.	-8%	.
COc1cc(C(=O)OCC(=O)Nc2cc(C)on2)cc(OC)c1OC	12	0.6	-12	0%	1
CCN1C(=O)C2C(c3ccc(O)c(OC)c3)NC(C)(C(=O)OC)C2C1=O (centres undefined)	0	-5.7	-32	-2%	5
CCC(C(=O)NCCCN1CCCC1=O)n1c2ccccc2c2nc(=O)cc(C)n21 (centres undefined)	1	19	.	.	.
O=C(CN1CCN(c2ncccn2)CC1)Nc1ccccc1-n1cccc1	1	0.5	-37	-4%	13
C/C(CC1(O)C(=O)N(Cc2ccccc2)c2ccccc21)=N\O (centres undefined)	-1	2.5	-29	-4%	0
CC(CNC(=O)c1ccc(N)cc1)NC(=O)c1ccc(N)cc1 (centres undefined)	9	-3.7	.	6%	8
Cc1cnc(C(=O)OCC(=O)c2cc(C)n(C)c2C)cn1	-6	-1.4	.	1%	7
O=C(C1CC(Cl)CN1S(=O)(=O)c1ccc(Cl)cc1)N1CCOCC1 (centres undefined)	3	5.6	.	-2%	5
CCN(CC)S(=O)(=O)c1ccc(N=Nc2c(N)[nH]c(=O)[nH]c2=O)cc1	5	2.1	.	-12%	.
CC(=O)Nc1ccc(S(=O)(=O)NCC(CCC(=O)O)C(F)(F)F)cc1 (centres undefined)	12	-6.2	.	-4%	16
COc1ccc(C(=O)/C=C/c2cc(C(=O)O)cc3c2OCOC3)c(O)c1	19	-1.4	.	-1%	.
CCOc1cc(C(=O)Nc2cc(C)ccn2)cc(OCC)c1OCC	1	-1.4	-44	-7%	-5
CC(=O)c1cccc(N(C(=O)CS(=O)CC(=O)Nc2ccc(F)cc2)C(C(=O)NC2CCCCC2)c2ccc(C)o2)c1 (centres undefined)	6	0.5	-62	10%	0
COC(=O)c1cn(NC(=O)Cc2cccc(C(F)(F)F)c2)c(=O)c2ccccc12	3	0.7	.	1%	8
O=c1n(Cc2ccccc2)c2cc(Cl)cnc2n1Cc1ccccc1	6	1.3	-28	1%	-2
CN(C(=O)COC(=O)c1sc2ccccc2c1Cl)C1CCCCC1	98	1.8	-22	?	-3
CCOC(=O)N1CCN(c2c(NCCCN3CCCCCC3)c(=O)c2=O)CC1	1	1.2	-45	6%	14
CC(OC(=O)CCN1C(=O)C2CC=CCC2C1=O)C(=O)Nc1cccc(Cl)c1 (centres undefined)	-6	-0.7	.	.	.
CN(C)C(=O)c1ccc(NC(=O)c2cccnc2)cc1	-10	-0.6	-4	0%	2
O=C(N/N=C/c1ccc2c(c1)OCO2)c1ccc2c(c1)OCCO2	4	-2.9	-40	5%	-30
Cc1ccc(C)c(/C(O)=C2/C(=O)C(=O)N(CCN3CCOCC3)C2c2ccco2)c1 (centres undefined)	17	-3.7	-3	-10%	3
Nc1c(Cl)ncnc1NCC(O)CO (centres undefined)	2	-1.5	.	0%	.
COC(=O)c1cc(S(=O)(=O)N2CCN(c3ccc([N+](=O)[O-])cc3)CC2)c[nH]1	-1	1.4	.	.	.
O=C(N/N=C/c1cc(Br)cc(Br)c1O)c1cccc(S(=O)(=O)N2CCOCC2)c1	-2	3.5	.	-11%	.
O=C(O)c1cc(-c2ccc(Cl)s2)[nH]n1	2	1.3	.	1%	.
COc1ccccc1N1CCN(CCCCOc2c(OC)cccc2OC)CC1	-1	-2.0	.	.	.

The list goes on (6 carried over from the part before).
SMILES	Mtb bLac sens	RecA intein inh	YopH inh	Mtb H37Rv	Arbovirus anti	others
Cc1ccc(C)c(/C(O)=C2/C(=O)C(=O)N(CCN3CCOCC3)C2c2ccco2)c1 (centres undefined)	17	-3.7	-3	-10%	3
Nc1c(Cl)ncnc1NCC(O)CO (centres undefined)	2	-1.5	.	0%	.
COC(=O)c1cc(S(=O)(=O)N2CCN(c3ccc([N+](=O)[O-])cc3)CC2)c[nH]1	-1	1.4	.	.	.
O=C(N/N=C/c1cc(Br)cc(Br)c1O)c1cccc(S(=O)(=O)N2CCOCC2)c1	-2	3.5	.	-11%	.
O=C(O)c1cc(-c2ccc(Cl)s2)[nH]n1	2	1.3	.	1%	.
COc1ccccc1N1CCN(CCCCOc2c(OC)cccc2OC)CC1	-1	-2.0	.	.	.
O=C(Cc1ccccc1)Nc1ccccc1C(=O)NCC1CCCO1 (centres undefined)	-6	0.1	.	.	.
N#CCCN1CCN(S(=O)(=O)c2ccc(S(=O)(=O)NC3CCCC3)cc2)CC1	-1	0.2	-17	-8%	3	Arbovirus anti repeat=9
COc1ccc(-c2nc3ccccn3c2NCc2ccc3c(c2)OCO3)cc1	-1	-18	-8	8%	-16
CCCCCN(C(=O)CCC(=O)OCC(=O)N(CC)c1ccccc1)c1c(N)n(CCCC)c(=O)[nH]c1=O	-2	-2.3	.	.	.
COc1cc(OC)cc(-c2nnc(SCC(=O)Nc3ccc(C(=O)O)cc3)s2)c1	-5	5.6	.	-4%	4
CCOc1ccc2nc(N3CCCCCC3)sc2c1	85	5.8	-39	0%	4
CCOc1ccc(S(=O)(=O)N(C)CC(=O)NC2CCCC2)cc1	-2	-0.1	.	.	.
Cc1c(N2C(=O)c3ccccc3C2=O)c(=O)n(-c2ccccc2)n1C	-14	-0.3	-54	-7%	1
COc1cc(O)c(C(CC(=O)N2CCN(c3ccccc3)CC2)c2ccc3c(c2)OCO3)c(OC)c1 (centres undefined)	11	7.1	.	0%	.
CC1(c2ccc([N+](=O)[O-])c(CS(=O)(=O)c3ccccc3)c2)OCCO1	-8	-4.5	.	-4%	22
COc1ccc(N(CC(=O)Nc2cccnc2)S(C)(=O)=O)cc1	-5	1.3	.	-3%	0
CCCCN(C(=O)c1ccccc1Br)C1CCS(=O)(=O)C1 (centres undefined)	-3	-2.3	.	.	.
CNC(=S)NCCN1CCOCC1	2	-2.0	-21	4%	-9
COc1ccc2cc(C(C)C(=O)N3CCC(C(N)=O)CC3)ccc2c1 (centres undefined)	6	-2.6	.	.	.
CN(C)c1ccc(SC#N)cc1	0	-3.5	.	-11%	.

5 structures out of the list, arranged by count of non-hydrogen atoms, smallest number first.
SMILES	Mtb bLac sens	RecA intein inh	YopH inh	Mtb H37Rv	Arbovirus anti	others
CN(C)C(=O)c1ccc(NC(=O)c2cccnc2)cc1	-10	-0.6	-4	0%	2
CCOc1ccc(S(=O)(=O)N(C)CC(=O)NC2CCCC2)cc1	-2	-0.1	.	.	.
O=C(C1CC(Cl)CN1S(=O)(=O)c1ccc(Cl)cc1)N1CCOCC1 (centres undefined)	3	5.6	.	-2%	5
COC(=O)c1cc(S(=O)(=O)N2CCN(c3ccc([N+](=O)[O-])cc3)CC2)c[nH]1	-1	1.4	.	.	.
CCOC(=O)c1ccc(NC(=O)CN2C(=O)NC3(CCCCCC3)C2=O)cc1	49	-6.5	.	-5%	-22

3 records drawn at random from the list so far:
SMILES	Mtb bLac sens	RecA intein inh	YopH inh	Mtb H37Rv	Arbovirus anti	others
N#CCCN1CCN(S(=O)(=O)c2ccc(S(=O)(=O)NC3CCCC3)cc2)CC1	-1	0.2	-17	-8%	3	Arbovirus anti repeat=9
COc1ccccc1N1CCN(CCCCOc2c(OC)cccc2OC)CC1	-1	-2.0	.	.	.
CC1(c2ccc([N+](=O)[O-])c(CS(=O)(=O)c3ccccc3)c2)OCCO1	-8	-4.5	.	-4%	22

Carrying on:
SMILES	Mtb bLac sens	RecA intein inh	YopH inh	Mtb H37Rv	Arbovirus anti	others
O=C1Nc2cc(C(=O)N3CCN(c4ccc(F)cc4)CC3)ccc2NC1CSCc1cccc(F)c1 (centres undefined)	14	4.5	.	.	.
CN(CC(=O)Nc1ccccc1Cl)C(=O)COC(=O)CNC(=O)c1ccc(Br)o1	7	0.1	2	-5%	.
NC(=O)C1CCN(C(=O)C2CC(=O)N(c3ccc(F)cc3)C2)CC1 (centres undefined)	-2	-0.8	.	.	.
O=C(c1ccccc1)c1ccccc1N=Cc1c(O)[nH]c(=O)[nH]c1=O	3	0.6	.	0%	2
O=c1ccc(-c2ccccc2)nn1Cc1ccc(F)cc1	?	-2.6	.	.	.
CCN1CCN(C(=S)NCCOC)CC1	-9	-0.9	.	-26%	4
Cc1ccc(S(=O)(=O)/N=C/c2ccco2)cc1	17	-0.9	-38	-5%	5	Arbovirus anti repeat=4
O=C(NCC(c1ccc(F)cc1)N1CCOCC1)c1c(F)cccc1F (centres undefined)	-2	-1.5	.	5%	.
CC(=O)Nc1ccc(NC(=O)c2ccccc2N(C)S(=O)(=O)c2ccc(C)cc2)cc1	-15	1.8	.	.	.
Cc1ccc(S(=O)(=O)Nc2ccc(C(=O)NCc3cccnc3)cc2)cc1	-1	-1.9	.	.	.
